Lassa entry inh: qHTS for Inhibitors of binding or entry into cells for Lassa Virus; Lassa virus pseudotype entry inhibition, cell reporter; control for the full effect not named in the record; Potency, µM (titrated, usually from 37.9 µM), for inactives: at the highest dose activity change, negative = inhibition, actives largely listed as inhibitors; 1.2% of 300,000 active; AID 540256, 2011; active means well fitted inhibition curve with a large enough effect; inconclusive means small, poorly fitted or top-dose-only effect, or effect the other way; inactive means flat fitted curve, though single readings scatter; tested in HEK293 cells; also: % is scaled to controls: 0 for no effect and ±100 for the full control effect; nearly all actives have a fitted effect of over 50% in size; luciferase read-out
RE007 growth inh: qHTS Assay for Inhibitors of the HIV-1 protein Vpr. S. pombe RE007 Vpr strain, BacTiter-Glo ATP luminescence, 24 h; control for the full effect not named in the record. Potency, µM (titrated, usually from 92.2 µM), for the others: at the top dose activity change, negative = less growth. 0.21% of 360,000 active. AID 651644, 2012; active = well fitted falling curve with a large enough effect; inconclusive = small, poorly fitted or top-dose-only effect; inactive = no such curve, though single readings can be large or run the other way;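 also: % is scaled to controls: 0 for no effect and ±100 for the full control effect; nearly all actives have a fitted effect of over 50% in size; the assay follows cell death caused by Vpr and the record does not say whether a fall means rescue or toxicity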
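Fission yeast strain RE007, carrying one chromosomally integrated HIV-1 vpr copy, was seeded at OD 0.01 in PMG+AL medium with 23 nL pinned compound. After 24 h at 30 °C and 99% humidity, viability was read by BacTiter-Glo luminescence.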
Cruzain noTriton: qHTS Assay for Promiscuous and Specific Inhibitors of Cruzain (without detergent). Potency, µM, inactives show max response, negative = inhibition, usual class: inhibitors. 2.3% of 200,000 active. AID 1476, 2009. purified cruzain, Z-FR-AMC fluorescence, no detergent; active = well fitted curve in the direction sought with a large enough effect; inconclusive = small, poorly fitted or top-dose-only effect, or another doubt; inactive = no such curve, though single readings can be large; an effect the other way counts as inactive or inconclusive;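 also: plate controls were enzyme without inhibitor for no effect and buffer without enzyme for full effect; nearly all actives have a fitted effect of over 40% in size; top concentration of the series not given in the record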
Target sequence (P25779 123-467 limits assumed): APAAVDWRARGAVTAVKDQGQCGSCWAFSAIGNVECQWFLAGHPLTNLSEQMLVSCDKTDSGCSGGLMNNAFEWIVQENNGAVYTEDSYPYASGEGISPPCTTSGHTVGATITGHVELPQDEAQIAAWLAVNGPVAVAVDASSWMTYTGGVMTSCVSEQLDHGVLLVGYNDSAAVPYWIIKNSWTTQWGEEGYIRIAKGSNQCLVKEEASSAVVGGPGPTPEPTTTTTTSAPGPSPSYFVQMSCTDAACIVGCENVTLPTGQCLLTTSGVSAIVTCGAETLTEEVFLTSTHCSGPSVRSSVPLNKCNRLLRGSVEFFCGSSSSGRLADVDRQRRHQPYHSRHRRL
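Purified cruzain at 1.5 nM, pre-incubated 15 min with compound at room temperature in 100 mM sodium acetate pH 5.5, 5 mM DTT, 0.00005% Triton X-100. Reaction started with 2 uM Z-FR-AMC; AMC fluorescence increase over 60 s gives rate.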
SARS PLpro yeast: qHTS of Yeast-based Assay for SARS-CoV PLP; 0.19% of 330,000 active; S. cerevisiae expressing SARS-CoV PLpro, growth rescue; control for the full effect not named in the record; Potency, µM (top dose mostly 32.9 µM), for the others: at the highest dose activity, positive = growth rescue; AID 485353, 2010; also: 0% is about no effect; nearly all actives have a fitted effect of over 55% in size; growth read by luminescence after 48 h
Cruzain Triton: qHTS Assay for Promiscuous and Specific Inhibitors of Cruzain (with detergent) | Potency, µM, for the others: max response, negative = inhibition, actives largely listed as inhibitors | Cruzipain (Trypanosoma cruzi), P25779 | purified cruzain, Z-FR-AMC fluorescence, 0.01% Triton | AID 1478, 2009 | 0.43% of 200,000 active; active = well fitted curve in the direction sought with a large enough effect; inconclusive = small, poorly fitted or top-dose-only effect, or another doubt; inactive = no such curve, though single readings can be large; an effect the other way counts as inactive or inconclusive;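 also: plate controls were neutral wells for no effect and buffer without enzyme for full effect; nearly all actives have a fitted effect of over 40% in size; top concentration of the series not given in the record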
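Sodium acetate buffer (100 mM, pH 5.5) containing 5 mM DTT and 0.01% Triton X-100 hosted 1.5 nM cruzain and test compound for 15 min at room temperature. Cleavage of 2 uM Z-FR-AMC was then tracked by fluorescence.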
NS1 inh: qHTS Assay for Inhibitors of Influenza NS1 Protein Function | S. cerevisiae slowed by influenza A NS1, growth recovery by OD600 | Potency, µM (highest dose often 46.1 µM), for inactives: at the highest dose activity, positive = more growth | 0.4% of 270,000 active | AID 2326, 2010; also: actives are rising curves; nearly all actives have a fitted effect of over 50% in size
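In this qHTS, NS1 from influenza A is expressed in budding yeast, where it slows growth. Cells are switched from glucose to 2% galactose medium (pH 6.0, -URA), treated with compound, and growth recovery is read at OD600.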
2A StopGo: High Throughput Screening for Foot and Mouth Disease Virus Antivirals; human cells with a luciferase reporter of 2A StopGo recoding; control for the full effect not named in the record; Potency, µM (doses to about 57.9 µM), inactives show at the highest dose signal change, negative = less light; 1.2% of 410,000 active; AID 1159524, 2015; active = well fitted falling curve with a large enough effect; inconclusive = small, poorly fitted or top-dose-only effect; inactive = no such curve, though single readings can be large or run the other way; tested in HEK293T cells; also: % is scaled to controls: 0 for no effect and ±100 for the full control effect; nearly all actives have a fitted effect of over 45% in size; luciferase light after 4 h
MARV entry inh: qHTS for inhibitors of binding or entry into cells for Marburg Virus. Marburg virus pseudotyped entry inhibition, cell reporter; control for the full effect not named in the record; about a third of the inactives were read at about 46 µM. Potency, µM (top dose mostly 37.8 µM), inactives show at the highest dose activity change, negative = inhibition, usual class: inhibitors. 1.8% of 300,000 active; active = well fitted inhibition curve with a large enough effect; inconclusive = small, poorly fitted or top-dose-only effect, or effect the other way; inactive = flat fitted curve, though single readings scatter; tested in HEK293 cells; about a fifth of its hits are not listed in these tables; also: % is scaled to controls: 0 for no effect and ±100 for the full control effect; luciferase read-out
Active calls of the source: *; u = inconclusive; x = no result given; [ ] = another dose, or the depositor's remark. Unless noted, calls follow the shape of the dose curve; as a rule, active means well fitted rising curve with a large enough effect; inconclusive means small, poorly fitted or top-dose-only effect; inactive means no such curve, though single readings can be large or run the other way. Potency is read from the fitted curve at half-maximal effect.

cpd	SMILES	Lassa entry inh	RE007 growth inh	Cruzain noTriton	SARS PLpro yeast	Cruzain Triton	NS1 inh	2A StopGo	MARV entry inh
1	CC1CN(C(=O)c2ccc(-c3ccccc3Cl)o2)CC(C)O1 (centres undefined)	-19%[46.1 µM]	-3%	x	1%	x	x	33%[activator]	u
2	CC1=C(C(=O)N2CCOCC2)C(c2ccc(Br)cc2)NC(=S)N1c1ccccc1 (centres undefined)	15%	5%	x	-3%	x	x	70%[activator]	9%[46.1 µM]
3	CC1(C)C2([N+](=O)[O-])CNCC1([N+](=O)[O-])CNC2	26%	14%	-2%	-22%	0.9%	4%	3%	2%
4	CCCCCCCC1(C)NC(=O)N(CC(=O)Nc2cc(C)on2)C1=O (centres undefined)	4%	-22%	x	1%	x	x	-22%	-15%[46.1 µM]
5	CC(=O)N1CCc2c(sc(NC(=O)c3cccc(N4C(=O)CCC4=O)c3)c2C(N)=O)C1	x	-15%	x	-3%	x	9%	-7%	x
6	Cc1cc(C)cc(NC(=O)C(=O)NCC(c2ccc3c(c2)OCO3)N2CCN(C)CC2)c1 (centres undefined)	u	x	12%	x	1.8%	x	-16%	x
7	COc1ccc(-c2c(C(F)(F)F)nn(C)c2NC(=O)c2cccnc2)cc1	-8%	9%	x	-2%	x	2%	29%	1%[46.1 µM]
8	N/C(=N\C(=S)Nc1ccccc1)c1ccccc1	19%[46.1 µM]	-17%	x	2%	x	-1%	29%	u

Structural class, the entries above containing sulfur
cpd	SMILES	Lassa entry inh	RE007 growth inh	Cruzain noTriton	SARS PLpro yeast	Cruzain Triton	NS1 inh	2A StopGo	MARV entry inh
2	CC1=C(C(=O)N2CCOCC2)C(c2ccc(Br)cc2)NC(=S)N1c1ccccc1 (centres undefined)	15%	5%	x	-3%	x	x	70%[activator]	9%[46.1 µM]
5	CC(=O)N1CCc2c(sc(NC(=O)c3cccc(N4C(=O)CCC4=O)c3)c2C(N)=O)C1	x	-15%	x	-3%	x	9%	-7%	x
8	N/C(=N\C(=S)Nc1ccccc1)c1ccccc1	19%[46.1 µM]	-17%	x	2%	x	-1%	29%	u

Next records:
cpd	SMILES	Lassa entry inh	RE007 growth inh	Cruzain noTriton	SARS PLpro yeast	Cruzain Triton	NS1 inh	2A StopGo	MARV entry inh
9	COc1ccc(C=C(c2ccc(OC)cc2)c2ccc(OC)cc2)cc1	10%	9%	13µM*	-3%	-22%	3%	-27%	1%
10	O=C(Nc1cccc(Cl)c1)N1CCN(C/C=C/c2ccccc2)CC1	5%	0%[3.69 µM]	5%	0%	-0.3%	-21%	u	-2%
11	CCN(CC)C(=O)CCc1nc2sc3c(c2c(=O)[nH]1)CCCC3	2%	7%	4%	-2%	0.4%	-1%	11%	1%
12	CNc1oc(-c2ccccc2Cl)nc1P(=O)(c1ccccc1)c1ccccc1	u	40%	u	21%	-25%	-2%	u	u
13	Cc1ccc2ccc3ccc(C)nc3c2n1	x	u	x	-32%	x	-62%	-24%	x
14	C=CCn1c(SCC(=O)Nc2ccc(C(=O)O)cc2)nnc1-c1cccnc1	x	14%	x	2%	x	-5%	-13%	x
15	COCCNC(=O)c1oc2ccc3c(c2c1C)C(O)CC(C)(C)O3 (centres undefined)	x	29%	x	u	x	3%	13%	x
16	O=C(CSc1nnc(SCc2ccccc2)s1)N/N=C/c1ccc(Cl)cc1Cl	5%	0%	1%	5%	-5.2%	-7%	-15%	u

Reformatted with one line to a screen: part of the list above.
14. C=CCn1c(SCC(=O)Nc2ccc(C(=O)O)cc2)nnc1-c1cccnc1
15. COCCNC(=O)c1oc2ccc3c(c2c1C)C(O)CC(C)(C)O3 (centres undefined)

Assay by compound	14	15
Lassa entry inh	x	x
RE007 growth inh	14%	29%
Cruzain noTriton	x	x
SARS PLpro yeast	2%	u
Cruzain Triton	x	x
NS1 inh	-5%	3%
2A StopGo	-13%	13%
MARV entry inh	x	x

(continued)
cpd	SMILES	Lassa entry inh	RE007 growth inh	Cruzain noTriton	SARS PLpro yeast	Cruzain Triton	NS1 inh	2A StopGo	MARV entry inh
17	Cc1ccccc1NC(=O)NCc1ccco1	u	6%	-12%	3%	1.4%	u	-3%	16%
18	Oc1ccccc1C=NC1CCCCC1N=Cc1ccccc1O (centres undefined)	27%[46.1 µM]	8%	x	0%	x	0%	12%	-1%[46.1 µM]
19	O=P(C(c1ccc2c(c1)OCO2)N1CCOCC1)(N1CCOCC1)N1CCOCC1 (centres undefined)	2%	0%	-2%	1%	6.0%	-6%	-1%	22%
20	COC(=O)c1cc(S(=O)(=O)NCC2CCN(CCc3cccs3)CC2)c[nH]1	x	5%	x	-2%	x	16%	2%	x
21	O=C1NCCCC1C(=O)N/N=C/c1ccccc1[N+](=O)[O-] (centres undefined)	0%[46.1 µM]	-9%	x	-2%	x	3%	16%	6%[46.1 µM]
22	Cc1nnc(SCCC(=O)Nc2ccc(F)cc2)s1	u	12%	-5%	15%	2.6%	-12%	-7%	2%
23	COc1ccc(Cn2ccc(=O)c(Cc3c(Cl)cccc3Cl)c2C)cc1	-1%	-15%	-9%	2%	4.9%	3%	u	-19%
24	COc1cc(OC)cc(C(=O)NN2CCCCC2)c1	4%	4%	-8%	0%	-1.5%	7%	-3%	6%

Full records from above. Order of values: Lassa entry inh, RE007 growth inh, Cruzain noTriton, SARS PLpro yeast, Cruzain Triton, NS1 inh, 2A StopGo, MARV entry inh
Shown for `N/C(=N\C(=S)Nc1ccccc1)c1ccccc1` : 19%[46.1 µM], -17%, x, 2%, x, -1%, 29%, u
Shown for `Oc1ccccc1C=NC1CCCCC1N=Cc1ccccc1O` (centres undefined) : 27%[46.1 µM], 8%, x, 0%, x, 0%, 12%, -1%[46.1 µM]
Shown for `CC(=O)N1CCc2c(sc(NC(=O)c3cccc(N4C(=O)CCC4=O)c3)c2C(N)=O)C1` : x, -15%, x, -3%, x, 9%, -7%, x

The listing continues.
cpd	SMILES	Lassa entry inh	RE007 growth inh	Cruzain noTriton	SARS PLpro yeast	Cruzain Triton	NS1 inh	2A StopGo	MARV entry inh
25	CC(=O)NC1=NN(C(C)=O)C(C)(c2ccc(Cl)s2)S1 (centres undefined)	u	-2%	u	-3%	28µM*	5%	-19%	u
26	N#Cc1c2n(cnc1=O)CCCCC2	1%	-6%	1%	x	3.5%	5%	-23%	15%
27	CCc1c(C)nc2nc(SCc3ccccc3Cl)[nH]n2c1=O	u	-7%	x	-4%	x	-4%	-20%	u
28	CC1CN(c2nn3c(=O)c4ccccc4nc3c3ccccc23)CC(C)O1 (centres undefined)	-8%	21%	u	0%	-3.1%	-5%	u	-19%
29	Cc1ccc(C2(C)NC(=O)N(CC(=O)Nc3ccccc3N3CCCCC3)C2=O)cc1 (centres undefined)	u	-4%	x	2%	x	x	u	-7%
30	CCCCn1c(=O)c(C(=O)NCc2ccccc2Cl)c(O)c2ccccc21	x	0%	x	0%	x	1%	-11%	x
31	Cc1nc(-c2ccncc2)sc1C(=O)Nc1ccc(Br)cc1	3%[46.1 µM]	-8%	x	1%	x	-1%	-8%	u
32	COc1ccccc1-c1nc(-c2ccccn2)no1	x	u	-6%	-18%	-4.9%	-57%	-72%	x
33	CCOC(=O)/C(C#N)=N\Nc1ccc(S(=O)(=O)Nc2nc(C)cc(C)n2)cc1	u	4%	5%	u	-10%	u	-21%	1%
34	O=S(=O)(/C=C/c1ccccc1)Nc1ccc(N2CCOCC2)cc1	-21%	2%	2%	-3%	-4.5%	5%	16%	8%
35	O=C1CCN(Cc2ccccc2)C(=O)N1c1ccccc1	6%[46.1 µM]	3%	x	1%	x	2%	6%	3%[46.1 µM]
36	Cc1cc(S(=O)(=O)Nc2cc3c(cc2Cl)n(C)c(=O)c(=O)n3C)ccc1F	19%[46.1 µM]	x	-3%	x	-1.3%	x	u	2%[46.1 µM]
37	C=CCn1c2ccccc2c2nnc(SC(CC)C(=O)Nc3sc4c(c3C#N)CCCC4)nc21 (centres undefined)	-1%	7%	25µM*	-6%	-3.7%	4%	-6%	u
38	Cc1nnn(-c2nonc2N)c1C(=O)N/N=C/c1cccc2ccccc12	-3%	-1%	-13%	18%	-3.1%	1%	-4%	u
39	CC(=O)c1cccc(CN2CCC(C(=O)Nc3ccc(-c4cccc(C)c4)cc3)CC2)c1	-23%[46.1 µM]	0%	x	-3%	x	-30%	u	u
40	COc1ccc(C2=Nn3c(nnc3-c3ccc(OC)cc3)SC2)cc1	1.3µM*	-9%	16%	-27%	-8.8%	-19%	u	u
41	COc1cccc(Cl)c1NC(=O)N1CCc2c([nH]c3ccccc23)C1C(F)(F)F (centres undefined)	-16%[46.1 µM]	3%	x	-1%	x	3%	-44%	u
42	Cc1ccc2c(c1)NCC(C(=O)NCc1ccccc1)O2 (centres undefined)	6%	-9%	9%	5%	1.6%	u	-10%	5%
43	O=C(CSc1nc2nn(-c3ccccc3)c(=O)c-2c2n1CCCCC2)c1ccc(O)c(O)c1	u	-2%	x	7.1µM*	x	x	-13%	u
44	O=C(NC1CCCc2c1cnn2-c1ccccc1F)c1ccccc1N1CCOCC1 (centres undefined)	x	5%	x	-11%	x	-39%	-29%	x
45	COc1cc(Cl)c(S(=O)(=O)N2CCOCC2)cc1Cl	-10%	12%	8%	-8%	-4.0%	-3%	-24%	21%
46	O=C(CSc1ncc(-c2ccccc2)n1CC1CCCO1)N1CCCCC1 (centres undefined)	-3%	-1%	-1%	7%	2.2%	-4%	5%	u
47	Cc1nn(CC(=O)N2CCc3ccccc3C2)c(C)c1Cl	x	-3%	x	-4%	x	5%	-11%	x
48	CCS(=O)(=O)c1ncc(Cl)c(C(=O)Nc2c(C(=O)c3ccc(C)cc3)oc3ccccc23)n1	1%[46.1 µM]	x	-20%	x	-1.5%	x	-29%	0%[46.1 µM]

Bioassay records: PubChem, National Center for Advancing Translational Sciences (NCATS)
